Bioassay records: PubChem BioAssay, National Center for Advancing Translational Sciences (NCATS)
Vaccinia Venus: vaccinia inhibition (Venus reporter); 0.46% of 330,000 active; Potency, µM (top dose mostly 36.5 µM), for inactives: at the top dose activity change, negative = inhibition, usual class: inhibitors; Vaccinia virus Venus reporter expression, fluorescence; AID 720580; active means well fitted inhibition curve with a large enough effect; inconclusive means small, poorly fitted or top-dose-only effect; inactive means no such curve, though single readings can be large or run the other way; tested in A549 cells; further: nearly all actives have a fitted effect of over 30% in size; inactives centre near -10
VACV mCherry inh: inhibitors of vaccinia virus infection (mCherry reporter signal). Vaccinia virus mCherry reporter infection, fluorescence; about a quarter of the inactives have no number. Potency, µM (titrated, usually from 36.5 µM), without a hit: top-dose activity change, negative = inhibition, hits mostly inhibitors. 0.63% of 310,000 active. AID 720579; active = well fitted inhibition curve with a large enough effect; inconclusive = small, poorly fitted or top-dose-only effect; inactive = no such curve, though single readings can be large or run the other way; tested in A549 cells; further: nearly all actives have a fitted effect of over 35% in size; inactives centre near -10
* hit, by the source's call; i = inactive; ? = inconclusive; nt = not tested or not shown; & = joins results of further samples; [ ] = another dose, or the depositor's remark. On the % scale 0 is the no-effect control and ±100 the full control effect; potency means the concentration at half of the fitted maximal effect. This is a random part of the collection; about 0.88% have a hit in one of these screens.

The line under a structure holds: Vaccinia Venus	VACV mCherry inh
[1] COc1ccc(-c2[nH]ncc2CN2C[C@@H]3CCC[C@H]2C3)c(F)c1
  -3%	-6%
[2] CC(=O)c1cc2c(cc1NC(=O)CN1CCN(c3ccc(F)cc3)CC1)OCO2
  -16%	-18%
[3] N#C/C(=C\c1cccc([N+](=O)[O-])c1)C(=O)Nc1cccnc1
  -4%	5%
[4] COc1c(C)cc(C(=O)C2CCCN(C(=O)/C=C/c3ccccn3)C2)cc1C (centres undefined)
  -3%	i
[5] CCOc1cc(CNc2ccc(N3CCCC3)cc2)cc(Cl)c1OC
  -16%	-14%
[6] CCC(=O)N1CCc2cc(S(=O)(=O)NCCC(=O)Nc3ccc(CC)cc3)ccc21
  -21%	-19%
[7] Cc1cccc(OCc2nc(C#N)c(N3CCCC3)o2)c1
  -7%	-9%
[8] Cn1cc(CN2CCN(Cc3cccnc3)CC2)c(-c2ccc3c(c2)OCCO3)n1
  -9%	i
[9] CCCCSc1nc(C)cc(C)c1S(=O)(=O)c1ccccc1C
  ?	nt
[10] COc1cccc(CNC(=O)C2CCN(c3nn4c(=O)cc(C)nc4s3)CC2)c1
  -7%&-7%	-5%&-15%
[11] O=C1NC(=O)N(c2ccccc2F)C(=O)/C1=C/c1ccc(Sc2nc3ccccc3[nH]2)o1
  i	nt
[12] COc1ccccc1CCC(=O)Nc1nccs1
  -17%	-2%
[13] COc1ccc(/C=N/NC(=O)c2ccc(Br)o2)cc1Cn1cc([N+](=O)[O-])cn1
  -9%	i
[14] CCn1cc(Br)c(C(=O)N(C)Cc2ccccc2)n1
  -14%	-29%
[15] O=C(Nc1ccc(S(=O)(=O)N2CCCCC2)cc1)c1ccco1
  -7%	-5%
[16] COc1ccc2c(C(=O)c3ccc(Cl)cc3)n(CCCC(N)=O)[n+]([O-])c2c1
  -17%	?
[17] CCOC(=O)c1c(C(C#N)C#N)cc(C)nc1C
  -19%	-8%
[18] O=C(NCCc1csc(-c2ccc(C(F)(F)F)cc2)n1)C(=O)Nc1cc(F)ccc1F
  -10%	-1%
[19] CC(=O)CCc1oc2ccc(C)cc2c1-c1ccccc1
  -12%	-14%
[20] CCOCCCNC(=O)c1ccc(Br)cc1
  -3%	-12%

Values in list order from above:
Vaccinia Venus, nos. 12 to 18 → -17%, -9%, -14%, -7%, -17%, -19%, -10%
VACV mCherry inh, nos. 12 to 18 → -2%, i, -29%, -5%, ?, -8%, -1%

Returning to the listing, starting three compounds before the break.
The line under a structure holds: Vaccinia Venus	VACV mCherry inh
[18] O=C(NCCc1csc(-c2ccc(C(F)(F)F)cc2)n1)C(=O)Nc1cc(F)ccc1F
  -10%	-1%
[19] CC(=O)CCc1oc2ccc(C)cc2c1-c1ccccc1
  -12%	-14%
[20] CCOCCCNC(=O)c1ccc(Br)cc1
  -3%	-12%
[21] O=C(NCCN1CCOCC1)C(=O)NCC1OCCN1C(=O)c1ccc(Cl)cc1 (centres undefined)
  -13%	i
[22] O=C(COC(=O)C(Cc1ccccc1)NC(=O)c1ccccc1)c1ccccc1 (centres undefined)
  -18%	-4%
[23] O=C(CCC(=O)N/N=C/c1ccc(Br)s1)NCc1ccccc1
  -6%	-15%
[24] O=c1[nH]c(=O)n([C@H]2C[C@H](O)[C@@H](CO)O2)cc1F
  ?	?
[25] CCn1cc(C(=O)NCc2ccccc2Cl)c(=O)c2cc(S(=O)(=O)N3CCCCC3)ccc21
  -1%	i
[26] Cc1nc(CN(C)C(=O)c2cc(COc3ccc4ncccc4c3)on2)cs1
  -18%	-9%
[27] COc1cc(C(=O)NCc2ccc(-c3nc4ccccc4o3)cc2)cc(OC)c1OC
  -12%	nt
[28] Cc1ccc(NC(=O)/C(=C/c2cccc(Br)c2)NC(=O)c2ccco2)cc1
  -4%	i
[29] COc1cccc(CNC(=O)CCCn2nc(C)c3c(C)n(-c4ccc(C)cc4)nc3c2=O)c1OC
  ?	?
[30] O=C(N/C(=C/c1ccc(Br)cc1)C(=O)N1CCCCC1)c1ccccc1F
  -7%	i
[31] O=C(O)c1ccccc1NCc1ccncc1
  -5%	-6%
[32] CC(C)N1CCC(=NNc2ccc([N+](=O)[O-])cc2S(=O)(=O)N2CCOCC2)CC1
  -14%	-18%
[33] Cc1ccc2oc(-c3cccc(NC(=O)/C=C/c4cccc([N+](=O)[O-])c4)c3C)nc2c1
  -4%	i
[34] CCOc1cc(-c2nnc(SCC(=O)NCCCOC)nc2-c2ccc(OC)c(OCC)c2)ccc1OC
  -9%	-12%
[35] CC(=O)c1cccc(NC(=O)N2CCCC2C(=O)NCc2ccc(F)cc2)c1 (centres undefined)
  -1%	-13%
[36] Cc1nc2c(c(=O)c3ccccc3n2C)c(=O)n1C1CCCCCC1
  -14%	-16%
[37] CCOC(=O)C1=C(CN2CCN(c3ccc(OC)cc3)CC2)NC(=O)NC1c1ccc(OC)cc1 (centres undefined)
  -18%	i
[38] COc1ccc(S(=O)(=O)N2CCOCC2)cc1NC(=O)COC(=O)CCOc1ccc(C)cc1
  -9%	-14%
[39] CCOc1ccc(C(=O)Nc2cc(C)on2)cc1OCC
  -11%	-12%
[40] O=C(NCCN1CCN(c2ccccc2Cl)CC1)Nc1ccccc1
  -22%	-11%
[41] Cc1cc(C)cc(Nc2ncnc3nc[nH]c23)c1
  -6%	?
[42] Oc1ccc(C[C@@H]2CNC(=S)N2CCCCC2CCCCC2)cc1
  -24%	-11%
[43] CC(C)Cc1ccc(S(=O)(=O)NCc2nc3cccnc3n2Cc2ccccc2)cc1
  -15%	-14%
[44] COc1ccc(-c2cc(=NCCC(=O)O)c3cc(C)ccc3o2)cc1
  -2%	-1%
[45] CN(C)N1C(=O)C2C3C=CC(O3)C2C1=O (centres undefined)
  -3%	i
[46] COc1ccc(Br)c(C(=O)Nc2nc3ccccc3[nH]2)c1
  8%	i
[47] Cc1ccc(C)c(NC(=O)Cn2cc(C(=O)c3cccs3)c3ccccc32)c1
  -27%	-1%
[48] CCOC(=O)c1ccc(NC(=O)CSc2nc(=O)n3cccc(C)c3n2)cc1
  -16%	-1%
[49] COC(=O)CCC(=O)OC1(C)C(=O)C=C2C=C(C3CC3)N(C3CCCC3)C=C2C1=O (centres undefined)
  -7%	i
[50] O=C(OCN1C(=O)c2ccccc2C1=O)c1cccs1
  -8%	nt
[51] N#Cc1c(C(F)(F)F)cc(C2CC2)[nH]c1=O
  -2%	i
[52] COc1ccc(C(=O)/C=C/Nc2ccc([N+](=O)[O-])cc2C)cc1OC
  -10%	i
[53] CCOc1ccccc1-n1c(SCC(N)=O)nnc1-c1cccnc1
  -1%	-5%
[54] CCOC(=O)N1CCN(C(c2ccc(C(C)C)cc2)c2sc3nc(C)nn3c2O)CC1 (centres undefined)
  -28%	i
[55] CC(=O)c1ccc(NC(=O)COC(=O)CCC2CCCC2)cc1
  -7%	?
[56] O=C1CCCN2N=C(SCC(=O)Nc3nccs3)SC2=N1
  7%	-14%
[57] COc1cc(S(=O)(=O)NCCCN2CCOCC2)ccc1-n1cnnn1
  -6%	-5%
[58] CC(=O)c1sc2nsc(SCCN3CCOCC3)c2c1N
  -6%	-10%
[59] CCOC(=O)c1ccc(NC(=O)CSc2nc3c(c(=O)[nH]2)CN(Cc2ccccc2)CC3)cc1
  7%	-2%
[60] CCCNc1nc(Cl)nc(NCc2cccnc2)n1
  2%	-10%
[61] CCc1ccc(-n2c(=O)c3sc4ccccc4c3n(CC(=O)N3CCCC3)c2=O)cc1
  -2%	4%
[62] O=C(C1CC(c2ccc(F)cc2)=NO1)N1CCc2ccccc2C1 (centres undefined)
  -15%	-9%
[63] Cc1nc2ccc(S(=O)(=O)NCC(=O)NCCN3CCCCC3C)cc2s1 (centres undefined)
  -9%	i
[64] CCN(CC)c1nc(-c2ccccc2Cl)c2cc(Br)ccc2n1
  -2%	-11%
[65] Cc1ccc2c(c1)N(CC(=O)NC1CCCC1)C(=O)c1cccnc1O2
  3%	-1%
[66] CC(=O)N1CCN(C(=O)c2cc3ccccc3o2)CC1
  7%	-10%
[67] Cc1ccc(NC(=O)CCS(=O)(=O)c2ccc3c(c2)oc(=O)n3C)c(Br)c1
  -8%	-20%
[68] COc1cc(N)c(N)cc1OC
  -10%	i
[69] O=C(Nc1ccc(F)c(Cl)c1)c1cc(S(=O)(=O)N2CCc3ccccc3C2)ccc1F
  -15%	-2%
[70] CC(C)n1ncc(C(N)=O)c1N
  -8%	-12%
[71] O=[N+]([O-])c1cc(F)cc(F)c1Nc1cc(F)cc(F)c1
  -16%	-23%
[72] CCN(CCN(C)C)C(=O)c1ccc2c(c1NCCO)C(=O)c1ccccc1C2=O
  34%[activator]	?
[73] CC(Sc1ncnc2ccccc12)C(=O)Nc1ccc2c(c1)OCO2 (centres undefined)
  -8%	-4%
[74] Cc1c(C(=O)N(C)CC2CCCN(C)C2)cnn1-c1nccc(-c2ccco2)n1 (centres undefined)
  -9%	-16%
[75] CCc1nnc(NC(=O)CSc2nnc(-c3ccco3)n2C)s1
  -5%	-17%
[76] NC(=O)C1CCN(C(=O)COc2ccc3ccc(=O)oc3c2)CC1
  -1%	2%
[77] CSCCC(NC(=O)c1ccc(Cl)cc1Cl)C(=O)OC1CCCCC1=O (centres undefined)
  -11%	-14%
[78] Cc1cnn(CCC(=O)NNC(=S)Nc2ccc(F)cc2)c1
  -7%	-16%
[79] COc1cc(C(=O)Nc2cc(OC)c(OC)c(OC)c2)ccc1OCc1c(C)noc1C
  -16%	-6%
[80] COCCn1c(C)cc(/C=C2/SC(=O)N(CC(=O)N3CCCC3)C2=O)c1C
  -2%	-3%

New compounds follow:
The line under a structure holds: Vaccinia Venus	VACV mCherry inh
[81] CC1CCN(c2nc(-c3ccco3)c3c(c2C#N)CC(C)(C)OC3)CC1
  0%	-13%
[82] CCC(CC)C(=O)N(C)c1c(C)nc2c(OCC=C(C)C)cccn12
  -11%	i
[83] N#Cc1cccc(NC(=O)CCn2ccnc2)c1
  -8%	i
[84] COc1ccccc1NC(=S)N(CCCN1CCOCC1)Cc1ccccn1
  -13%	i
[85] COc1cccc(NC(=O)CCC(=O)N2CC(C)Oc3ccc(C)cc32)c1 (centres undefined)
  -7%	0%
[86] O=C(Nc1ccccc1Cl)c1ccc2nc(N3CCOCC3)sc2c1
  -5%	i
[87] Cc1nn(Cc2ccc(C(=O)Nc3ccc(C(=O)OC(C)C)cc3)o2)c(C)c1Cl
  -28%	-6%
[88] COc1ccc(-c2c(-c3cc(OC)cc(OC)c3)n(C)c3ccc(-c4ccn[nH]4)cc23)cc1
  -16%	1%
[89] C=CCN(CC=C)C(=O)CN1C(=O)NC(C)(c2ccc3cc(OC)ccc3c2)C1=O (centres undefined)
  -7%	-2%
[90] CCOc1ccc(-n2nnnc2-c2nc3ccccc3s2)cc1
  -7%	-14%
[91] Cc1nn(-c2nc3ccccc3s2)c(N)c1-c1ccc(Cl)cc1
  2%	-14%
[92] CC1(C)Cc2c(sc3c2c(=N)n(Cc2ccco2)c(=O)n3CC(=O)Nc2ccccc2)CO1
  -26%	nt
[93] COc1ccc(C=C2C(=O)c3ccccc3C2=O)cc1O
  44%[activator]	0%
[94] Cc1ccccc1COc1cccn2c(N(C)C(=O)CCC3CCCC3)c(C)nc12
  -17%	i
[95] CC1CN(C(=O)CN2C(=O)c3ccccc3S2(=O)=O)CC(C)O1 (centres undefined)
  -11%	-18%
[96] COc1cc(NC(=O)CN2C(=O)C(=O)N(CC(C)C)C2=O)cc(OC)c1
  -12%	i
[97] CC1C(=O)N(Cc2cn(CCC3OCCO3)nn2)CCS(=O)(=O)N1Cc1ccc(-c2ccc(F)nc2)cc1 (centres undefined)
  -11%	-24%
[98] CC(CC(C#N)(c1ccccc1)c1ccccc1)N(C)C (centres undefined)
  -11%	-3%
[99] CCCCNC(=O)N1CCOCCOCCN(C(=O)NCCCC)CCOCCOCC1
  -20%	nt
[100] CN(C)c1ccc(C(CNS(=O)(=O)c2ccc(Br)cc2)N2CCCC2)cc1 (centres undefined)
  -14%	-21%
[101] COc1ccc(OC)c(Nc2c3c(nc4ccccc24)CCC3)c1
  -25%	-28%
[102] CC(C)c1ccc(NC(=O)c2cccn2-c2nnc(N3CCCCC3)s2)cc1
  -19%	-20%
[103] O=C(CN1CCN(Cc2ccc(Cl)cc2)C1=O)NCc1ccc(F)cc1
  -6%	-18%
[104] COc1ccc(/C=C(\C#N)C(=O)OCC(=O)Nc2c(C)cccc2C(C)C)cc1
  -4%	i
[105] CCc1nc2ccc(C(=O)NC3CCN(C)CC3)cn2c1N(C)CCC(C)C
  -4%	8%
[106] COc1ccc([N+](=O)[O-])cc1N(CC(O)CN(CC(C)C)CC(C)C)S(=O)(=O)c1ccc(C)cc1 (centres undefined)
  -9%	-21%
[107] Cc1cccc(C)c1NC(=O)NCc1ccco1
  -4%	i
[108] CN(C(=O)c1cccc(NC(=O)Cc2ccc(NC(=O)C3CCN(C(=O)C4CCC4)CC3)cc2)c1)C1CCCC1
  0%	i
[109] C=C(C)CN(CC)c1ccc(N2C(=O)CCCC2=O)cc1[N+](=O)[O-]
  -4%	i
[110] Cc1cc(=O)oc(C)c1C(=O)Nc1ccccc1F
  -2%[7.34 µM]	i[7.34 µM]
[111] O=c1[nH]c2ccccc2n2cnnc12
  0%	-1%
[112] O=C(CNC(=O)c1ccco1)Nc1cc(Cl)ccc1N1CCOCC1
  -4%	-15%
[113] O=C(c1ccccc1SCc1ccccc1)N1CCCCCC1
  4%	-9%
[114] O=C(CNC(=O)c1ccccc1Br)NNC(=O)c1cccs1
  3%	-5%
[115] O=C(CSc1ncnc2sc3c(c12)CCCCC3)NCc1ccco1
  -22%	-29%
[116] CC(C)NC(=O)C(=O)NNC(=O)C12CC3CC(CC(C3)C1)C2
  -19%	nt
[117] Cc1ccc2cc(/C=N/NC(=O)c3ccccc3[N+](=O)[O-])c(Cl)nc2c1
  2%	1%
